gsp ag – qHTS for Agonist of gsp, the Etiologic Mutation Responsible for Fibrous Dysplasia/McCune-Albright Syndrome: qHTS | gsp mutant cells, cAMP HTRF, 30 min; control for the full effect not named in the record | Potency, µM (titrated, usually from 76.9 µM), inactives show at the highest dose activation (cAMP increase), hits mostly activators | 0.13% of 340,000 active | AID 624287, 2012; active = well fitted activation curve with a large enough effect; inconclusive = small, poorly fitted or top-dose-only effect, or another doubt; inactive = no such curve, though single readings can be large or run the other way; cell line not stated here;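 further: phosphodiesterase inhibitor Ro 20-1724 added with compounds to block cAMP breakdown; potency means the concentration at half of the fitted maximal effect; nearly all actives have a fitted effect of over 60% in size; about a fifth of the inactives were tested at one dose only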
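Cells in DMEM/10% FBS with G418 were pretreated with compounds in DMSO plus […] (300 uM stock) for 30 min at 37C. cAMP was measured by HTRF (cAMP-d2 plus anti-cAMP antibody-K) after 30 min at room temperature.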
TRPV1 PAM – HTS Assay for Compounds that Act as Potentiators of the Vanilloid Receptor 1 | TRPV1-expressing cells, Fluo-8 calcium influx, capsaicin EC20 potentiation; host cell line not named in the record; control for the full effect not named in the record | potentiation, % at 8.33 µM | 0.02% of 320,000 active; active means potentiation above 80%; inconclusive means 30% to 80%; inactive means below 30%; further: 0% is about no effect
Target sequence (Q8NER1 whole entry, looked up): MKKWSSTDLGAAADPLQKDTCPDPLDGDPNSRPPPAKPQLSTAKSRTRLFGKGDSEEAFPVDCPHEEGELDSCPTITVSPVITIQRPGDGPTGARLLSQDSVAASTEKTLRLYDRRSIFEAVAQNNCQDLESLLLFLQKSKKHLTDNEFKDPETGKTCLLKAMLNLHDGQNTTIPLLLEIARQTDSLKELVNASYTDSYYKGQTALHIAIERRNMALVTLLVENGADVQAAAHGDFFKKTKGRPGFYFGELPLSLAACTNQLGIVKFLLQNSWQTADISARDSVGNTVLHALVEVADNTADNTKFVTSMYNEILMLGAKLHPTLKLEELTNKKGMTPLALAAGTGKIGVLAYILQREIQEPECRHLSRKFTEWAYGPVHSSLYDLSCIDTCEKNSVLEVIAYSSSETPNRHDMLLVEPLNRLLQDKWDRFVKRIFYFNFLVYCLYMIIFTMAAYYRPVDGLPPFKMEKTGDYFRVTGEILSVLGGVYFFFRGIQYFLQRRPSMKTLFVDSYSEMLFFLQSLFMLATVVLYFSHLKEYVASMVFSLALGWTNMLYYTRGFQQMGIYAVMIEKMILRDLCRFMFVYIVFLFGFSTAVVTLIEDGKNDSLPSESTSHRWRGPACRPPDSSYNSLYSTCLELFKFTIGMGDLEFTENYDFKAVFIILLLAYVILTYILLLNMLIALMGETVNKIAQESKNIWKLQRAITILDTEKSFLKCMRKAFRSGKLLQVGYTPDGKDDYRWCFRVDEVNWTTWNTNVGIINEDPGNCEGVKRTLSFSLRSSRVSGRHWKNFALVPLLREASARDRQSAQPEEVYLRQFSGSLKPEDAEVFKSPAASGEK
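Fluo-8 calcium influx in TRPV1-expressing cells, kinetic read (ex 480/em 520 nm). Compound added and read 3 min for agonist activity, followed by capsaicin at EC20 final and 2 min further read for enhancement.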
Sfp PPTase inh – qHTS Assay for Inhibitors of Bacillus subtilis Sfp phosphopantetheinyl transferase (PPTase). Potency, µM, for the others: max response, negative = inhibition, most hits filed as inhibitors. AID 1490, 2009. Biochemical Sfp PPTase activity, qHTS. 4'-phosphopantetheinyl transferase ffp (Bacillus subtilis), Q9F4F7. 3.5% of 310,000 active; active means well fitted inhibition curve with a large enough effect; inconclusive means small, poorly fitted or top-dose-only effect, or another doubt; inactive means no such curve, though single readings can be large or run the other way;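 further: the enzyme is Sfp with the accession as filed and its product quenches rhodamine fluorescence; potency means the concentration at half of the fitted maximal effect; 0% = enzyme reaction without inhibitor and -100% = no enzyme wells; top concentration of the series not given in the record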
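Reaction rates are the 30-min fluorescence difference (ex 525, em 598 nm) in wells containing 15 nM Sfp, 5 uM rhodamine-CoA and 12.5 uM BHQ-2-YbbR at pH 7.6 with 10 mM MgCl2.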
Menin-MLL FL inh – qHTS Assay for Inhibitors Targeting the Menin-MLL Interaction in MLL Related Leukemias: Competition With Fluorescein Labeled MLL-derived Peptide. Fluorescence polarization, fluorescein-MLL peptide displacement from menin. FP activity change, % at 61.4 µM. 290,000 tested, under 10 active. AID 1766, 2009; inconclusive = falling polarisation curve, or a change in total fluorescence; inactive = total fluorescence flat and polarisation flat or rising; no compound was filed as active; the % refers to the polarisation; negative = inhibition;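 further: % of control where 0% means no effect; inhibitors lower the polarisation; unlabelled MLL peptide was the positive control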
CtBP-E1A inh – qHTS Assay for Inhibitors of the CtBP/E1A Interaction; activity change, % (no concentration beside the values); AlphaScreen GST-E1A/His-CtBP binding, 1536-well; active compounds read low; control for the full effect not named in the record; CtBP / adenovirus E1A interaction (AlphaScreen); 0.49% of 340,000 active; AID 651724, 2012; in the data active means activity change below about -65%; inconclusive means about -30% to -65%; inactive means above about -30%; further: on the % scale 0 is the no-effect control and ±100 the full control effect
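In 5 uL wells, 23 nL compound meets equimolar GST-E1A and His-CtBP (5X stock 125 nM each) for 2 h, 37 °C. Beads (5X, 50 ug/mL) then 1 h, 37 °C, dark.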
ClpP mod – qHTS Assay for Activators of ClpP | 1.9% of 340,000 active | purified B. subtilis ClpP, FRET peptide cleavage, 20 min | ATP-dependent Clp protease proteolytic subunit (Bacillus subtilis (strain 168)), P80244 | Potency, µM (highest dose often 57.5 µM), for inactives: at the top dose activity change, negative = active; active = well fitted falling curve with a large enough effect; inconclusive = small, poorly fitted or top-dose-only effect; inactive = no such curve, though single readings can be large or run the other way; further: potency means the concentration at half of the fitted maximal effect; the source files actives as falling curves though it sought activators and does not explain the sign; nearly all actives have a fitted effect of over 65% in size; many hits overshoot -100%
Target sequence (P80244 whole entry, looked up): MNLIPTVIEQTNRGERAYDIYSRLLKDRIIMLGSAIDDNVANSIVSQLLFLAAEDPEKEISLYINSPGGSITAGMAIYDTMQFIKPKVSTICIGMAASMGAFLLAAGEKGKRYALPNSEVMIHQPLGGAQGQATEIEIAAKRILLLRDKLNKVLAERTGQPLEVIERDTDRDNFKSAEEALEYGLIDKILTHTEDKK
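Purified B. subtilis ClpP, 10 microg/mL final in Tris/HCl pH8 with KCl, BSA, glycerol and Tween-20, cleaved an Abz/nitrotyrosine-quenched decapeptide. Fluorescence (ex 320, em 430) was read at 0 and 20 min at room temperature. Delta was normalized to 5.8 microM ADEP and DMSO/no-enzyme controls.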
gsp antag – qHTS for Antagonists of gsp, the Etiologic Mutation Responsible for Fibrous Dysplasia/McCune-Albright Syndrome: qHTS | gsp-mutant cells, cAMP HTRF, 30 min; control for the full effect not named in the record | Potency, µM (highest dose often 76.9 µM), without a hit: top-dose activity change, negative = inhibition, most hits filed as inhibitors | 0.4% of 340,000 active; active = falling curve of any shape with a large fitted effect; inconclusive = falling curve, mostly with a smaller effect; inactive = flat or rising curve; cell line not stated here;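 further: intracellular cAMP measured with PDE inhibitor Ro 20-1724 present during compound exposure; potency means the concentration at half of the fitted maximal effect; on the % scale 0 is the no-effect control and ±100 the full control effect; nearly all actives have a fitted effect of over 65% in size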
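Cells, 2000/well, grown 16–24 h in DMEM 10% FBS with 0.5 mg/ml G418, then compounds plus […] (300 uM addition stock), 30 min at 37C. cAMP read by HTRF (cAMP-d2 and anti-cAMP antibody-K in lysis buffer) after 30 min RT.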
Active calls of the source: *; i = inactive; ? = inconclusive; . = no result given; & = joins results of further samples; [ ] = another dose, or the depositor's remark.

SMILES	gsp ag	TRPV1 PAM	Sfp PPTase inh	Menin-MLL FL inh	CtBP-E1A inh	ClpP mod	gsp antag
COc1cccc(-c2cc(C(F)(F)F)nc(N3CCOCC3)n2)c1	-65%[inhibitor]	-15	-11%	-0.7	31	-29%	-11%
Cc1cccc(OCc2nc3ccccc3n2C)c1	-18%	-12	12%	-1.0	.	-0.9%	0%
CC1CC1C(=O)Nc1ccc(-c2ccccc2)cc1 (configuration not stated)	-56%[inhibitor]	-14	-4%	-3.2	.	-1.5%	1%
COc1cccc(C(=O)Nc2c(F)c(F)c(F)c(F)c2F)c1	-7%	-14	-29%	2.1	16	-0.7%	2%
Cc1c(C=O)c2ccccc2n1CC(=O)NCc1ccc2c(c1)OCO2	-8%[15.4 µM]	-3	7%	-0.4	-21	.	3%
N#Cc1c(-c2ccccc2)nc(-c2ccncc2)[nH]c1=O	10%	11	15%	0.7	.	1.3%	13%
CNC(=O)c1ccsc1NC(=O)CCS(=O)(=O)c1ccc(Cl)cc1	0%	-11	.	.	0	-0.7%	-9%
CC(C)(C)OC(=O)NCCc1nnc(S(=O)(=O)Cc2ccc(Cl)cc2Cl)o1	2%	-22	-6%	1.2	3	-4.1%	3%
COc1cc2c(c(OC)c1)C(c1ccncc1)CC(=O)N2 (configuration not stated)	-57%[inhibitor]	-10	13%	2.4	7	-1.0%	2%
Cc1cc(C)nc(Nc2ccc(F)cc2)n1	12%[15.4 µM]	-8	14%	3.6	3	-1.4%	-3%
N#C/C(=C/c1ccc(-c2ccccc2)o1)c1nc(-c2cccs2)cs1	4%	18	-10%	?	23	0.9%	4%
COCCn1c(COc2ccccc2)nnc1SCC(N)=O	-31%[inhibitor]	3	11%	0.9	10	-0.2%	-5%
CC(=O)c1c(N2CCCC2)nc(=S)n(-c2ccccc2)c1C	3%	?	4%	0.9	7	-0.1%	3%
CCOC(=O)c1ccc[n+](CC(=O)Nc2cc(C(F)(F)F)ccc2Cl)c1	7%	-4	12%	4.9	11	.	4%
COc1cc(C2NC(=O)NC(C)=C2C(=O)OCc2ccccc2)ccc1O (configuration not stated)	-36%[inhibitor]	4	4%	-2.0	5	1.6%	4%
CCOC(=O)/C(=C/c1ccccc1)NC(=O)c1ccco1	2%	?	16%	0.3	-8	-0.8%	9%
O=C(O)CSc1cccc2cccnc12	2%&-24%	3	56µM*	2.0&1.7	?	?	6%&3%
CCOc1cc(C(=O)Nc2c3c(nn2C(C)(C)C)CS(=O)C3)cc(OCC)c1OCC (configuration not stated)	0%	-8	0%	-0.8	-1	-3.1%	-6%
Cc1ccc(-n2c3nc(=O)[nH]c(=O)c-3cc3cc([N+](=O)[O-])ccc32)cc1	?	-5	-12%	5.1	0	-8.0%	8%
O=C(CSCc1ccc([N+](=O)[O-])cc1)NC1CC2CCC1C2 (configuration not stated)	-25%	-6	-27%	-1.9	7	-1.9%	5%
CN(C)/C=N/c1ncc(C(=O)c2ccc(-c3ccccc3)cc2)s1	-3%[15.4 µM]	3	-18%	-1.3	10	.	?
Cc1cccc(OC(C)C(=O)N2CCN(Cc3ccc4c(c3)OCO4)CC2)c1 (configuration not stated)	-56%[inhibitor]	-22	15%	.	-4	-4.5%	-5%
Cc1cc(C)n(C(=O)COc2ccc([N+](=O)[O-])cc2)n1	?	-9	1%	3.2	3	1.2%	17%
CCOc1ccccc1NC(=O)CN(c1ccc(OC)cc1OC)S(=O)(=O)c1ccccc1[N+](=O)[O-]	1%	2	19%	-2.6	-15	.	-11%
Cc1noc(C)c1CSCC(=O)N(C)CC(=O)Nc1ccc(F)c(F)c1F	?	12	.	.	5	-3.4%	-2%
Cc1ccccc1N(C(=O)c1cccs1)c1nc2ccccc2s1	8%[15.4 µM]	1	5%	3.3	0	-2.7%	-13%
CCCC[C@]12Cc3cc(C#N)ccc3C(O1)c1c(c3ccccc3oc1=O)O2	.	i	11%	2.6[11.7 µM]	.	.	.
Cc1ccccc1N1CC(C(=O)NC2CCCC2)CC1=O (configuration not stated)	-2%[15.4 µM]	6	8%	3.6	7	.	6%
Cc1cc(C)cc(C(=O)NCC(=O)OC(C)C(=O)N(C)c2ccccc2)c1 (configuration not stated)	-93%[inhibitor]	24	14%	0.8	.	0.9%	1%
CCOC(=O)Cn1c(=O)oc2cc(S(=O)(=O)Nc3cc(OCC)ccc3OCC)ccc21	11%	-6	0%	2.1	4	-0.1%	-3%
Cc1c2cnn(-c3ccccc3)c(=O)c2c(C)n1CCCC(=O)NCCN1CCN(C)CC1	1%[15.4 µM]	16	4%	2.9	-13	.	3%
COc1cccc(NC(=S)N(CCc2nc3cc(C)c(C)cc3[nH]2)Cc2cccnc2)c1	14%	.	2%	-0.7	10	1.2%	-4%
CCN(CC)S(=O)(=O)c1cc(NC(=O)COC(=O)Cn2cnc3ccccc32)ccc1C	17%[15.4 µM]	-1	-8%	6.8	8	-1.9%	14%
CCS(=O)(=O)n1nc(C(=O)N2CCOCC2)nc1N	-21%	9	8%	2.4	-3	-3.4%	0%
COc1ccc(-c2ccc(C(=O)O)o2)c([N+](=O)[O-])c1	-17%	6	?	0.1	5	.	5%
CN(c1ccc(C(=O)Nc2cccnc2)cc1)S(=O)(=O)c1ccc(Cl)cc1	-4%[15.4 µM]	5	5%	-0.6	0	1.6%	-20%
O=C(OCc1cnc(Cl)s1)c1cccc(Cl)c1	-28%	-33	5%	4.1	18	-2.8%	3%
CCOC(=O)CNC(=O)CN1C(=O)CC(c2ccco2)Sc2ccccc21 (configuration not stated)	-12%	15	19%	3.7	4	.	-3%
C[C@H]1CN([C@@H](C)CO)C(=O)CCCn2nncc2CO[C@@H]1CN(C)Cc1ccccc1	-77%[inhibitor]	.	.	.	0	0.3%	.
O=c1[nH]cnc2c1C(c1ccccc1)c1c(nc[nH]c1=O)O2	6%	-12	7%	10	-9	.	7%
CCOC(=O)C1CCN(c2ccc(-c3cccs3)nn2)CC1	?	-7	10%	-3.2	0	.	-7%
COc1cccc(C(=O)O/N=C(\N)c2ccc([N+](=O)[O-])cc2)c1	11%	-7	-2%	-0.6	13	-0.1%	4%
Cc1coc2c(C)c3oc(=O)c(CCC(=O)N4CCC(C(=O)NCCCC(=O)O)(c5ccccc5)CC4)c(C)c3cc12	11%	18	8%	.	.	3.8%	4%
Cc1cccc(C)c1N=C1SC(CC(=O)Nc2c(C)cccc2C)C(=O)N1CCc1ccccn1 (configuration not stated)	3%[15.4 µM]	-2	-3%	-0.2	13	-3.3%	-9%
O=c1[nH]cnc2c1nc(SCc1ccccc1)n2C1OC(CO)C(O)C1O (configuration not stated)	?	4	16%	-1.0	7	1.0%	10%
O=C1NC(=O)/C(=C/c2ccc(-c3cccc([N+](=O)[O-])c3)o2)S1	-55%[15.4 µM]	?	89µM*	-3.1	?	-1.1%	?
Nc1nc(Cl)cc(Oc2ccc(Cl)cc2)n1	3%	3	12%	4.8	-6	-8.4%	-5%
CC1Sc2n(c3ccccc3[n+]2C)N=C1c1ccccc1 (configuration not stated)	13%	5	10%	2.9	-3	0.6%	12%
Cc1c(C(=O)N2CCCC2)c(S(=O)(=O)N2CCN(c3ccccc3F)CC2)c(C)n1C	-25%	7	16%	.	3	-2.3%	-5%
O=C1C(Cl)=C(N2CCC(C(=O)O)CC2)C(=O)c2ccccc21	?	-9	?	-9.9	1	1.0%	-21%

The results go on.
SMILES	gsp ag	TRPV1 PAM	Sfp PPTase inh	Menin-MLL FL inh	CtBP-E1A inh	ClpP mod	gsp antag
COc1ccccc1N(CC(=O)N(CC(C)C)CC(C)C)S(=O)(=O)c1cccs1	-61%[inhibitor]	-16	-5%	0.3	.	0.1%	-9%
COc1ccc2[nH]c3c(c2c1)CCN1C(=O)C(CC(=O)NCCC2=CCCCC2)C[C@H](C(=O)N2CCOCC2)[C@@]31CCC1CCCC1 (some centres not stated)	.	.	.	.	4	0.6%	-2%
c1ccc(CCC2Cc3ccccc3N2)cc1 (configuration not stated)	1%	4	.	.	-6	0.8%	4%
Cc1ccc(C(=O)Nc2cccc(NC(=O)c3ccc(C)cc3)n2)cc1	17%[15.4 µM]	.	.	.	-3	.	14%
O=C(CN1C(=O)NC2(CCCCCCC2)C1=O)NCc1cccs1	3%	4	25%	4.5	7	.	6%
C=CCc1ccc(OCCOc2cccc3ccc(C)nc23)c(OC)c1	-7%	-13	?	1.0	-3	-4.4%	?
Cc1nnc(NC(=O)CN2C(=O)NC3(CCCC3)C2=O)s1	-6%[15.4 µM]	1	.	.	1	-1.0%	11%
CCC/C(=N/NC(=O)c1csc(C)c1C)c1ccc(Cl)s1	-1%	-5	8%	-2.1	7	-0.5%	1%
CN1CCN(C(=O)c2ccc3nc(-c4ccccc4)c(-c4ccccc4)nc3c2)CC1	6%[15.4 µM]	-20	-27%	-1.6	-19	.	.
CCCCOc1cccc(C(=O)NC(=S)Nc2ccc(Cl)c(C(=O)O)c2)c1	-4%	16	7%	0.8	4	2.8%	-10%
CC(=O)c1ccc(NC(=O)CN2CCC(C(=O)c3ccc(F)cc3)CC2)cc1	-6%[15.4 µM]	-20	8%	0.9	-1	-0.7%	5%
O=C/C(=C\Nc1ccc(C(=O)N2CCOCC2)cc1)c1nc2ccccc2o1	0%[15.4 µM]	26	?	0.6	-7	.	.
CCOc1ccc(-c2csc(C3COc4ccccc4O3)n2)cc1 (configuration not stated)	?	.	.	.	14	0.1%	-1%
CCOC(=O)Cc1csc(NC(=S)NC(=O)c2ccc([N+](=O)[O-])cc2)n1	3%	3	-20%	-0.2	-4	-0.8%	-7%
N#Cc1ccccc1NC(=O)CN(Cc1ccccc1)Cc1ccccc1	?	-8	10%	-0.3	-1	.	-10%

Compound activity from PubChem BioAssay.

Compounds as they come; about 5.3% have a hit in one of these screens.
